# Source: PubChem
# LANA-H2B inh = blocks KSHV LANA binding to histone H2A/H2B. Q9QR71. cell-free LANA-H2A/H2B peptide, fluorescence polarization. inhibition, % (test concentration not listed). actives 0.6% (n = 320,000); in the data active = inhibition mostly above about 10%, no sharp cut-off; inactive = mostly below about 6.7%;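 note: stock transfer was 7.5 nL into about 10 µL; 0% = median of vehicle wells and 100% = median of positive control wells; one replicate is shown; the record names a cut of 25% in any replicate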
# Target sequence (Q9QR71 whole entry, looked up): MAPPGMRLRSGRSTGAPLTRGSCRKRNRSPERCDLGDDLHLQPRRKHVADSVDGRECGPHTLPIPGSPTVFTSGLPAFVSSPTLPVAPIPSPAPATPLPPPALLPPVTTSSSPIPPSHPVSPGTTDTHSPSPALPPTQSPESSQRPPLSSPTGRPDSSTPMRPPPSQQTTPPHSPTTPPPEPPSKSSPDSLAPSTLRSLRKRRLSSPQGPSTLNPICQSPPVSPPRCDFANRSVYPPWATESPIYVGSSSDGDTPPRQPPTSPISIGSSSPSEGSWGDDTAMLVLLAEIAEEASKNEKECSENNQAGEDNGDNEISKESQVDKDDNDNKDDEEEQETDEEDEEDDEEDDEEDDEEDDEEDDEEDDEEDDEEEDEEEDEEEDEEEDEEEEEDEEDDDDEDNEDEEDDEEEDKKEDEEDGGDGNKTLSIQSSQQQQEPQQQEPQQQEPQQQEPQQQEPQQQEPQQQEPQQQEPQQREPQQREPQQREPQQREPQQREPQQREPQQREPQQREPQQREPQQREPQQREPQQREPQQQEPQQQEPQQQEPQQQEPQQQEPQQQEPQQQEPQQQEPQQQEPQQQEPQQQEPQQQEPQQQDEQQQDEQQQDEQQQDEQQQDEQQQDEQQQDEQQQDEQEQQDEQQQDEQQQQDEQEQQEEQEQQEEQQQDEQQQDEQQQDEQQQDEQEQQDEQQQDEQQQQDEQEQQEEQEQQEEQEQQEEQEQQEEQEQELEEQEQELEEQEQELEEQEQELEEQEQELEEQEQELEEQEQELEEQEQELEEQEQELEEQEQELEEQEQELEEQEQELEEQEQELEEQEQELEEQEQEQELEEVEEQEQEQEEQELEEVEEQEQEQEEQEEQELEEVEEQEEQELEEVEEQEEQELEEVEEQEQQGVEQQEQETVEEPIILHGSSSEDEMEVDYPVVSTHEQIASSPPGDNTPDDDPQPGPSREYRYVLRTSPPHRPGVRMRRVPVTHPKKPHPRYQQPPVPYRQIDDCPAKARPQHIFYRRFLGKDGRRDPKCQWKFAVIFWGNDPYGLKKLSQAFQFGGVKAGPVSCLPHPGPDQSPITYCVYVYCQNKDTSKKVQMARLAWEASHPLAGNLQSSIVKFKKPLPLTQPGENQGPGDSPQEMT
# Bfl-1 A1 inh = inhibitors of the anti-apoptotic protein A1, read as caspase activation; actives 0.066% (n = 330,000); MEF A1-2A-BIM cells, Caspase-Glo 3/7 luminescence, 3 h; percent of clofoctol response, vehicle zero; AID 2462; caspase activation, % (no concentration beside the values);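 active = over half of replicate activation scores above 10%, or exactly half above 10 with the replicate mean above 10; inconclusive = replicate mean below 10 yet half the replicates above 10; inactive = over half of replicates below 10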;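 note: wells of about 30 µL received 50 nL stock; many hits fall short of the cut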
# Beta cell apopt = beta cell apoptosis inhibition; INS-1E cytokine-induced death, ATP luminescence, 48 h; percent of positive-control rescue, neutral wells zero; actives 0.8% (n = 300,000); protection from apoptosis, % (no concentration beside the values);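 active = all replicates at 75% or more, or half of them and the mean; inconclusive = half reach 75% but not the mean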;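 note: 0% = cytokine-treated negative control wells and 100% = positive control rescue; higher means more ATP so stronger rescue from cytokine killing; wells of about 40 µL received 100 nL stock; the first replicate is given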
# T cruzi repl = T. cruzi replication inhibition. actives 1.4% (n = 300,000). inhibition, % (test concentration not listed). T. cruzi beta-gal in NIH3T3, luminescence, 90 h;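 active = mean inhibition across valid replicates above about 55%, limit read from the data; inconclusive = mean below that limit but half or more replicates reach it; inactive = mean below it, under half of replicates reach it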;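 note: signal also drops with host cell toxicity which is not excluded here; 0% = plate median of DMSO wells and 100% = zero luminescence signal; higher percent means less beta-gal luminescence so fewer parasites; stock transfer was 50 nL into about 50 µL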
# UCH37 inh = blocks the human deubiquitinase UCH37. purified proteasome/UCH37, Ub-AMC cleavage fluorescence. actives 0.33% (n = 330,000). Q9Y5K5. inhibition, % (no concentration beside the values). AID 588478;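 active = mean of two replicates above 20%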;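 note: 0% = compound-free wells with enzyme and 100% = wells lacking proteasome; stock transfer was 100 nL into about 20 µL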
#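 Assay system: Proteasome-bound UCH37. Buffer or medium: pH 7.4 Tris-HCl (50 mM) with ovalbumin, ATP-MgCl2, DTT. Incubation: 30 min preincubation with enzyme, 25 min cleavage at room temperature. Measured by: fluorescence, ex 355 nm, em 460 nm. Read-out basis: percent inhibition. Control set: wells without proteasome as full block, compound-free enzyme plus substrate as uninhibited.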
# RanGTP-Imp inh = disruptors of Ran-importin-beta complex formation – biochemical, FRET, CFP-Ran, YFP-importin-beta, homogeneous, primary screen; cell-free CFP-Ran/YFP-importin-beta FRET ratio; inhibition, % (no concentration beside the values); actives 1.1% (n = 300,000);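 active = most replicates above 15%; inconclusive = exactly half above 15%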;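 note: 0% = DMSO wells and 100% = Ran loaded with GDP instead of GTP; wells of about 40 µL received 100 nL stock; the first replicate is given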
# B2AR ag = agonists of human beta-2 adrenergic receptor inducing internalization. P07550. Am2.2-beta2AR cells, FAP receptor internalization, flow cytometry; reference of the scale not given here. response, % (concentration not given with the values). actives 0.43% (n = 340,000);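 active = response above a set limit, near 3 SD of response in nonfluorescent compounds, cut at about 42% in these data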;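 note: stock transfer was 100 nL into about 11 µL; a reference agonist was the positive control; negative values mostly stem from fluorescent compounds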
# Calb FLC = affects C. albicans growth with fluconazole | C. albicans CaCi-2 (fluconazole-resistant clinical isolate) + fluconazole, Alamar Blue growth, 48 h | growth inhibition, % (test concentration not listed) | actives 0.57% (n = 300,000) | AID 1979;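 active = most replicates above 75%; inconclusive = exactly half above 75%; inactive = most below 75%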;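 note: all wells also contain fluconazole at 8 µg/ml as a sub-toxic cotreatment; 0% = median of DMSO wells and 100% = median of geldanamycin control wells; wells of about 8 µL received 7.5 nL stock; the first replicate is given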
# Active calls of the source: *; u = inconclusive; x = no result given.
# Preview:
SMILES,LANA-H2B inh,Bfl-1 A1 inh,Beta cell apopt,T cruzi repl,UCH37 inh,RanGTP-Imp inh,B2AR ag,Calb FLC
O/N=C/c1ccccc1Oc1ccc(Cl)cc1,2.6,-0.8,-4,20,x,-1.0,-3,-11
COCCSc1nc(N)c2c3c(sc2n1)CN(C)CC3,1.8,-0.4,0,-14,-64,u,-2,4
c1ccc(OCCOc2cccc3cccnc23)cc1,0.2,-0.5,-3,-29,6.4,-0.6,0,-5
CCOC(=O)c1cnc2c(Cl)c(Cl)ccc2c1NCCN1CCOCC1,3.3,0.9,x,52,-53,2.4,-10,6

# Main list, from the first entry:
SMILES,LANA-H2B inh,Bfl-1 A1 inh,Beta cell apopt,T cruzi repl,UCH37 inh,RanGTP-Imp inh,B2AR ag,Calb FLC
O/N=C/c1ccccc1Oc1ccc(Cl)cc1,2.6,-0.8,-4,20,x,-1.0,-3,-11
COCCSc1nc(N)c2c3c(sc2n1)CN(C)CC3,1.8,-0.4,0,-14,-64,u,-2,4
c1ccc(OCCOc2cccc3cccnc23)cc1,0.2,-0.5,-3,-29,6.4,-0.6,0,-5
CCOC(=O)c1cnc2c(Cl)c(Cl)ccc2c1NCCN1CCOCC1,3.3,0.9,x,52,-53,2.4,-10,6
CC(=O)c1ccc(N2CCN(c3ccc(C(F)(F)F)cn3)CC2)cc1,8.5,-0.1,10,13,-1.1,2.0,-6,37
CN(C)C(=O)OCC1COc2ccccc2O1 (stereo not given),-7.2,0.2,x,-7,1.2,-2.0,-11,-2
COc1ccc(OCC(=O)NNC(=O)c2ccccn2)cc1,3.6,0.4,-1,-10,1.9,0.2,4,46
Cc1nnc(SCC(=O)NC23CC4CC(CC(C4)C2)C3)n(N)c1=O,2.4,0.1,2,-5,7.1,7.4,-10,5
O=C(c1ccc(N2C(=O)C3CCCCC3C2=O)cc1)N1CCCCC1 (stereo not given),1.4,0.3,3,-6,-1.8,0.0,13,-8
Cc1ccc(Cn2nc3c4cc(F)ccc4n(Cc4ccc(F)cc4)cc-3c2=O)cc1,x,x,x,5,1.3,-2.0,7,-3
COc1cc(S(=O)(=O)Nc2cccc(C)c2)ccc1NC(=O)c1cccnc1,-0.8,-0.1,8,7,2.9,0.6,-5,-1
COc1cc(OC)cc(C(=O)NCC(=O)OCc2csc(-c3ccccc3)n2)c1,-2.6,0.0,10,-6,4.6,2.1,4,-5
CCCn1c(=O)c(C(=O)NNC(=O)c2cccc([N+](=O)[O-])c2)c(O)c2ccccc21,2.2,-0.1,-7,-3,3.6,0.9,0,-20
CSc1nnc(-c2cnccn2)n1CCCN1CCCC1=O,-6.0,0.2,4,6,5.3,0.3,2,-1
Cc1nnc(-c2cnn(C)c2N)n1Cc1cccc(Cl)c1,-0.6,0.2,0,-39,-0.3,4.8,-1,0
CCOC(=O)CSc1nc2ccccc2c(=O)n1Cc1ccco1,3.7,0.7,-8,20,2.6,-1.7,1,45
CC1CN(C(=O)c2ccc3c(c2)OCO3)CC(C)O1 (stereo not given),-1.8,-0.2,2,2,1.0,-0.5,-1,-18
CN(C)CC(O)COc1ccc(C(C)(C)c2ccc(OCC(O)CN(C)C)cc2)cc1 (stereo not given),7.6,0.5,7,33,4.4,-0.6,15,1
Cn1c(=O)[nH]c2ccc([N+](=O)[O-])nc21,-3.3,0.4,0,-18,8.0,4.8,1,12
O=C(O)C1CCN(C(=O)COc2ccc3c4c(c(=O)oc3c2)CCC4)CC1,-11,1.3,1,-5,-56,4.9,6,1
CC(=O)c1ccccc1NC(=O)CCCNC(=O)c1ccc(Cl)cc1,1.7,-0.3,3,-3,-1.7,4.2,2,-6
CCCNC(=O)NC(=O)COC(=O)c1oc2ccc(OCC)cc2c1C,-1.1,-0.3,x,-11,-25,-0.1,3,13
O=c1c(-c2n[nH]c(=S)o2)cccn1Cc1ccccc1,-0.7,0.4,-3,6,-9.2,-3.2,-3,-1
c1ccc(N2CCN(c3nc4ccccc4n4cnnc34)CC2)cc1,-4.3,0.4,1,19,-9.3,5.2,-11,0
O=C1Oc2ccccc2C2(O)C3CCCCCC3C12 (stereo not given),-1.0,0.1,-1,2,1.0,6.1,-20,3
CCOc1ccccc1N1CCN(C(=O)c2cc[n+]([O-])cc2)CC1,-1.7,0.2,x,0,1.0,5.5,-1,-2
Cc1ccc(CNC(=O)c2sccc2-n2cccc2)cc1,0.6,0.0,-5,17,0.0,-1.5,6,-1
COc1ccc(C(=O)Nc2cc(C)nc3ccccc23)cc1OC,-4.3,-0.4,3,-10,2.8,-2.0,2,-12
CN(C)/C=C1\C(=O)NN=C1C(F)(F)F,4.5,-0.1,-4,-30,5.4,-0.1,9,0
Cc1cc([N+](=O)[O-])nn1CC(=O)NCc1ccco1,-7.1,-0.2,3,-5,0.6,-1.2,18,-6
O=c1oc2cc(O)ccc2cc1-c1nc2c(s1)CCc1ccccc1-2,1.5,-0.6,0,x,-207,x,x,x
CN1CCN(c2ccc(Cl)cc2NC(=O)c2cccc(S(=O)(=O)N(C)C)c2)CC1,2.2,-0.4,10,23,4.0,0.4,3,-2
CCc1ccc(C(=O)CC2(O)C(=O)N(CN3CCOCC3)c3ccccc32)cc1 (stereo not given),-0.2,-0.1,-20,-16,2.1,-1.5,3,0
Cc1cccc(OCC(=O)O/N=C(\N)c2ccccn2)c1C,-8.0,0.0,1,6,2.2,1.1,3,-2
Cc1ccc(S(=O)(=O)N(C)/C(=N/S(=O)(=O)c2ccccc2)c2ccccc2)cc1,0.1,0.1,-8,7,x,2.1,-17,31
COC(=O)C(C)NC(=O)c1cn(-c2ccccc2OC)c(=O)c2ccccc12 (stereo not given),11,0.6,-3,-11,-1.3,1.4,0,8
CN(C)c1ccc(/C=C(\NC(=O)c2ccccc2)C(=O)NCCCN2CCOCC2)cc1,1.4,0.8,x,-7,9.0,-1.3,-5,-8
COc1cc(NC(=O)c2ccc3c(c2)OCO3)ccc1NC(=O)c1cccs1,4.6,-2.9,6,10,-4.3,0.4,-19,-18
Cc1ccc(C(=O)CC(C(=O)O)n2cccn2)cc1 (stereo not given),-6.4,-3.7,x,-12,-0.6,3.5,-3,1
CCCC1S/C(=N/N=C/c2cccs2)NC1=O (stereo not given),4.2,-0.6,3,-26,x,0.9,-1,-10
CCOC(=O)C1=CCN(Cc2ccccc2)CC1,4.7,-0.6,-1,-23,1.0,u,-5,-11
COc1ccc(C2CC(c3ccccc3)=NN2S(=O)(=O)c2ccccc2)c(OC)c1 (stereo not given),-3.4,0.3,7,-7,4.7,-3.9,-1,2
O=S(=O)(/C=C/c1ccccc1)N1CCN(c2cccc(Cl)c2)CC1,-5.6,-0.5,1,0,1.1,1.4,0,-25
C=CCOc1cc(C)nc(-c2ccccc2O)n1,2.7,0.9,-4,1,-1.8,-1.7,-5,4
Nc1nc(Nc2ccc(Cl)cc2)n[nH]1,0.8,0.8,x,-7,1.9,-3.5,-12,-5
O=C(/C=C/c1ccco1)Nc1ccccc1N1CCCCC1,1.3,0.1,-6,31,5.1,0.2,-7,17
CSc1nc(C)c(C(=O)Nc2ccccc2)c(-c2ccco2)c1C#N,-4.3,0.3,-3,1,-0.2,3.5,-1,-1
Cc1cccc(N2C(=O)C(O)=C(C(=O)c3cccs3)C2c2cccc(Oc3ccccc3)c2)n1 (stereo not given),-3.7,0.4,-4,8,2.6,0.5,-4,49
O=C(NCc1ccc2c(c1)OCO2)c1cc2n(n1)C(C(F)(F)F)CC(c1ccc3c(c1)OCO3)N2 (stereo not given),2.1,0.3,-3,17,-1.6,2.0,-5,-6
O=C(c1cc(C2CC2)nn1-c1ccccc1)N1CCN(c2ncc(C(F)(F)F)cc2Cl)CC1,-3.3,-0.3,0,x,1.0,x,-4,x
Cc1cc(OCC(=O)Nc2ccc(N3CCN(C(=O)c4ccco4)CC3)cc2)cc(C)c1Cl,-2.9,0.7,8,43,6.5,3.8,6,0
O=C(OCC(=O)N1CCN(C(=O)c2ccco2)CC1)c1cncc(Br)c1,7.4,0.1,4,x,0.9,x,-7,x
O=C(/C=C/c1cc([N+](=O)[O-])ccc1OC(F)F)NCc1ccc(Cl)cc1,-0.8,0.5,-3,3,4.5,-1.5,-8,-1
COc1cc2nc(=S)n3[nH]c(CCn4c(C)nc5ccccc54)nc3c2cc1OC,-15,0.9,0,-17,7.6,3.1,-17,1
COc1ccc(CNC(=O)c2cc(C(=O)C3CC3)c[nH]2)cc1,-0.3,0.0,2,2,2.4,1.6,-2,5
CCN1CCN(C(=O)Cn2nc(-c3ccc(Cl)cc3)ccc2=O)CC1,0.5,0.8,-9,2,-1.1,-1.3,-15,-6
CCn1cc(C(=O)Nc2sc(C)c(C)c2C(=O)OC)cn1,-3.2,1.5,-2,15,-241,3.4,-10,u
COc1cc(NC(=O)c2ccccc2)c(OC)cc1NC(=O)Cc1ccccc1,-1.4,-0.3,x,9,2.2,0.0,2,14
COc1nc(NCc2ccco2)nc(NC2CCCCC2)n1,-8.2,0.0,6,10,1.1,-0.6,20,4
Cc1cccc(-c2nsc(SCC(=O)NCC3CCCO3)n2)c1 (stereo not given),4.1,0.0,-1,-6,4.0,5.3,-2,-1
# Other compounds.
SMILES,LANA-H2B inh,Bfl-1 A1 inh,Beta cell apopt,T cruzi repl,UCH37 inh,RanGTP-Imp inh,B2AR ag,Calb FLC
COCCN(CC(=O)NCc1ccc2c(c1)OCO2)C(=O)CCC(=O)Nc1nccs1,2.6,-0.4,-11,3,1.5,8.2,-7,3
CC(=O)N1CCc2cc(C(=O)CN3CCN(c4ccccn4)CC3)ccc21,3.7,1.3,-14,-8,0.4,5.0,-17,2
O=C(CNC(=O)c1ccccc1)Oc1ccc([N+](=O)[O-])cc1,-1.6,-2.8,-6,-17,8.4,1.0,1,1
CCc1nnc(NC(=O)CCC(=O)Nc2ccccc2)s1,2.8,-0.1,-3,-6,-2.6,5.3,1,-13
CCc1cc(CNC(=O)C2CCC(=O)N(CCc3ccc(OC)cc3)C2)on1 (stereo not given),-1.2,-0.7,-2,-14,1.1,2.8,0,-3
COc1ccc(C(=O)C[n+]2ccc(C)cc2)cc1,0.5,0.3,1,-21,6.5,6.1,0,14
COc1ccc(OC)c(C2C(C(C)=O)=C(O)C(=O)N2CCN2CCOCC2)c1 (stereo not given),-0.6,0.2,-2,0,8.1,1.9,5,-13
COc1ccccc1-c1sc2ccccc2c1-c1ccccc1OC,3.4,1.2,7,x,-0.6,x,6,x
Cc1ccc(C(=O)CCC(=O)N2CCC(C(N)=O)CC2)s1,-5.4,0.0,-3,x,3.5,x,1,x
CSCC[C@H](NC(=O)C1CCN(S(=O)(=O)c2ccc(C)cc2)CC1)C(=O)NCC1CCCO1 (stereo not given in full),0.5,-0.5,-8,-17,-1.6,u,-2,13
CCCN(CCC)Cc1c(C(=O)N/N=C/C(C)=C\c2ccccc2)nnn1-c1nonc1N,-5.9,0.3,22,9,x,3.8,-12,26
Cc1cccc(S(=O)(=O)NCCc2cn3ccccc3n2)c1,0.2,0.4,-6,-9,2.7,3.0,7,-5

# Compounds were not picked by outcome; overall some 4.3% were active at least once.
